Ecoli growth – E. coli growth inhibition, primary screen, OD600. AID 1053175, 2014. 330,000 compounds, 0.21% hits. Escherichia coli growth, 23 h; active compounds read low. OD600 absorbance (no concentration beside the values);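 active = OD600 absorbance below the run mean of sample wells minus 3.6 SD, in any replicate, cut at about 0.56 in these data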;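 also: stock transfer was 300 nL into about 60 µL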
UCH37 DUB inh – inhibitors of human UCH37 deubiquitinase, primary screen, biochemical, Ub-AMC cleavage, fluorescence; purified proteasome/UCH37; Ubiquitin carboxyl-terminal hydrolase isozyme L5 (Homo sapiens), Q9Y5K5; 330,000 compounds, 0.33% hits; inhibition, % (no concentration beside the values); AID 588478, 2011;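 active = mean of two replicates above 20%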;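 also: 0% = compound-free wells with enzyme and 100% = wells lacking proteasome; stock transfer was 100 nL into about 20 µL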
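Test system – human UCH37 enzyme supplied as purified proteasome complex · Incubation – 30 min preincubation with enzyme, 25 min cleavage at room temperature · Detection – AMC fluorescence from Ub-AMC cleavage, excitation 355 nm, emission 460 nm · Benchmarks – no-proteasome wells (full inhibition) and compound-free wells (no inhibition)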
Vif A3G – inhibitors of Vif binding to APOBEC3G peptide, primary screen, biochemical, TR-FRET, GST-Vif 1-94, biotin-A3G peptide, dose response retest (AID 1117319). inhibition, %; hits with a dose series show IC50 in µM. 260,000 compounds, 0.57% hits. TR-FRET GST-Vif / biotin-A3G peptide binding; higher % means a stronger effect; test concentration not given here; strong numbers were not always called active;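 active = above the screen mean plus three standard deviations and confirmed in dose response; inconclusive = results disagree or hit not tested in dose response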;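 also: Vif residues 1-94 fused to GST binding biotinylated APOBEC3G peptide 110-148; 0% = full assay without inhibitor and 100% = GST in place of GST-Vif; retest series ran down from 100 µM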
Beta2AR agonist – beta2AR agonists driving receptor internalization, primary screen, cell-based, FAP fluorogen, flow cytometry. response, % (test concentration not listed). Am2.2-beta2AR cells; reference of the scale not given here. 340,000 compounds, 0.43% hits. AID 504454, 2011. Beta-2 adrenergic receptor (Homo sapiens), P07550;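 active = response above a set limit, near 3 SD of response in nonfluorescent compounds, cut at about 42% in these data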;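 also: stock transfer was 100 nL into about 11 µL; a reference agonist was the positive control; negative values mostly stem from fluorescent compounds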
LANA-H2B inh – blockers of LANA interaction with H2A/H2B – biochemical, FP readout, HTS, primary screen | cell-free LANA-H2A/H2B peptide, fluorescence polarization | AID 2629, 2010 | 320,000 compounds, 0.6% hits | inhibition, % (no concentration beside the values) | Protein LANA1 (Human herpesvirus 8 type P (isolate GK18)), Q9QR71; in the data active = inhibition mostly above about 10%, no sharp cut-off; inactive = mostly below about 6.7%;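 also: stock transfer was 7.5 nL into about 10 µL; 0% = median of vehicle wells and 100% = median of positive control wells; one replicate is shown; the record names a cut of 25% in any replicate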
Target sequence (Q9QR71 whole entry, looked up): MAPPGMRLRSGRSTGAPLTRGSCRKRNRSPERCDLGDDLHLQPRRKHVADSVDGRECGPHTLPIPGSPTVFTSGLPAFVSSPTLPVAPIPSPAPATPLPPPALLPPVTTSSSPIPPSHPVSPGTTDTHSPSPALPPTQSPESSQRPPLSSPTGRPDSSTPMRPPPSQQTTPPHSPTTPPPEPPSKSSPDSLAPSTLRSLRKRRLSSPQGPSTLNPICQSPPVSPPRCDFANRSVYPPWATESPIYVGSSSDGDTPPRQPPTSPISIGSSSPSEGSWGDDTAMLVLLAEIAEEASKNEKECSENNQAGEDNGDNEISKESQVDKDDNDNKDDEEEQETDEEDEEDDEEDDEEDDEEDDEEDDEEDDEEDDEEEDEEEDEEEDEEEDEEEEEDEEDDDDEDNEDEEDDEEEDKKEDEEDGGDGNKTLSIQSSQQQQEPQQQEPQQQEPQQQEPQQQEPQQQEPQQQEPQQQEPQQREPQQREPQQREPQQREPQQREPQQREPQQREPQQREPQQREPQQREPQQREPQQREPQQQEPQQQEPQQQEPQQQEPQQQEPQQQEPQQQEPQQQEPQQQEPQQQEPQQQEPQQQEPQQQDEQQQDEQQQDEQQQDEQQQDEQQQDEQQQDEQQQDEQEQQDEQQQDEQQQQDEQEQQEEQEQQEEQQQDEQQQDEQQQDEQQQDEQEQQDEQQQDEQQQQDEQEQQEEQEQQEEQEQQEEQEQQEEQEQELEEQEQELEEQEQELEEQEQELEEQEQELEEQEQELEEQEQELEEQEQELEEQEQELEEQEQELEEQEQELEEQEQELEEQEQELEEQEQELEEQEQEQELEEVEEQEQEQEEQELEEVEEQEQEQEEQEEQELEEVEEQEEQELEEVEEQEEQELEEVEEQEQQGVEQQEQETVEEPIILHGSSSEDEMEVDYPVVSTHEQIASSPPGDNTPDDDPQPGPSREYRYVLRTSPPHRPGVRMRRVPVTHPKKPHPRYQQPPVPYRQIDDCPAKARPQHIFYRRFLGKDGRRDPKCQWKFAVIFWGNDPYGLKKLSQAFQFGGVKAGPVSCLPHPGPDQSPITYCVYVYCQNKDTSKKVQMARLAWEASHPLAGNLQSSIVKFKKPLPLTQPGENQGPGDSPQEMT
HNF4A DNA FP – change in binding of human HNF4A to DNA, primary screen, biochemical, fluorescence polarization, FITC-DNA | Hepatocyte nuclear factor 4-alpha (Homo sapiens), P41235 | 360,000 compounds, 0.3% hits | 1 h | AID 1224865, 2016 | activity change, % at 10 µM; in the data active = activity change above about 30%, passing the limit was not always enough;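 also: controls were the assay level and a saturating level of protein; the project sought stronger binding though the title names inhibitors; some compounds called inactive have numbers as strong as hits; positive values seem to mean higher polarization but the record does not say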
Bfl-1 A1 inh – caspase 3/7 activation in MEF A1-2A-BIM cells, primary screen, A1 inhibitor project, cell-based, luminescence, HTS; caspase activation, % (concentration not given with the values); 330,000 compounds, 0.066% hits; Caspase-Glo 3/7 luminescence, 3 h; percent of clofoctol response, vehicle zero;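 active = over half of replicate activation scores above 10%, or exactly half above 10 with the replicate mean above 10; inconclusive = replicate mean below 10 yet half the replicates above 10; inactive = over half of replicates below 10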;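 also: wells of about 30 µL received 50 nL stock; many hits fall short of the cut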
Numbers without * were called inactive; u = inconclusive; x = not tested or not shown; + = active, no number; & = joins results of further samples. Rows were taken by chance. Share with any hit: about 2.1%.

SMILES	Ecoli growth	UCH37 DUB inh	Vif A3G	Beta2AR agonist	LANA-H2B inh	HNF4A DNA FP	Bfl-1 A1 inh
CCOc1ccccc1NC1c2ccccc2C(=O)N1Cc1ccco1 (stereo not given)	0.78	4.5	3%	-1	-6.2	-2.5	x
O=C(Nc1ccccc1)c1nc[nH]c1C(=O)N1CCN(c2ccccc2)CC1	0.7	-1.8	x	-25	0.8	-3.0	u
COC(=O)c1cc(S(=O)(=O)Nc2nn(C)c3ccccc23)oc1C	0.71	1.6	-7%	3	2.0	-7.8	0.4
Cn1cc(-c2cc(C(=O)O)on2)cn1	0.7	1.5	-6%	-2	-0.8	0.2	0.5
Cc1cc(C)cc(N(C(C)C(=O)N2CCOCC2)S(C)(=O)=O)c1 (stereo not given)	0.66	1.6	-2%	-10	-2.1	-3.6	-1.1
CCN(CC)S(=O)(=O)c1ccc(C(=O)NC(=S)N(CCO)Cc2ccccc2)cc1	0.67	-0.1	-12%	5	-4.8	1.7	-1.1
O=C(CSc1cccc[n+]1[O-])Nc1ccccc1Oc1ccccc1	0.68	4.5	3%	-6	+	-2.1	-1.4
Cc1ccc(SCCC(=O)OC(C(=O)NC(N)=O)C(C)C)cc1 (stereo not given)	0.67	-2.5	7%	-1	1.8	-3.6	-0.3
CCC(C(=O)Nc1cnccn1)c1ccccc1 (stereo not given)	0.63	2.4	-1%	0	-4.0	0.5	0.6
Cc1nnc(NC(=O)CSc2nnc(Cc3cccn3C)n2-c2cccc(C)c2C)s1	0.72	6.4	26%	x	-4.6	x	-0.2
COc1ccc(C(=O)CN2C(=O)c3ccccc3C2=O)c(OC)c1C	0.68	0.9	3%	-1	-0.6	0.2	-0.6
CC(=O)Nc1ccc(NC(=O)Nc2cccc(Cl)c2)cc1	0.67	0.4	-5%	1	-5.4	-1.2	0.1
O=c1oc2ccccc2c(N2CCOCC2)c1[N+](=O)[O-]	0.69	6.9	2%	36	2.1	-0.8	-1.6
Nc1c(-c2cccc(Cl)c2)cnn1-c1cccc(C(F)(F)F)c1	0.69	4.7	5%	-7	2.7	1.9	-0.7
COc1ccc(N(C(=O)c2snc(C(N)=O)c2N)C(C(=O)NC2CCCC2)c2ccc(C)o2)c(OC)c1 (stereo not given)	0.69	-51	-6%	0	11	1.2	0.0
COc1ccc(-c2ccc(C(C)=O)cc2)cc1[C@H]1[C@H]2C=CC[C@@H](C)[C@@H]2C(=O)N1Cc1ccccc1	x	-3.1	4%	2	0.7	20	0.4
CN(c1ccccc1)S(=O)(=O)c1cc(C(=O)c2nccn2C)ccc1Cl	0.77	1.7	3%	1	4.2	2.1	0.2
CC(=O)Nc1cccc(NC(=O)c2c(-c3ccccc3)noc2C)c1	0.67	-1.6	1%	13	18*	3.8	0.9
COc1ccc(Cc2nnc(NC(=O)C3CCN(C(=O)c4ccco4)CC3)s2)cc1	0.67	3.0	2%	-4	4.3	2.6	-0.7
Cn1nc(C(=O)Nc2ccc(S(=O)(=O)N3CCOCC3)cc2)c2ccccc2c1=O	0.64	-1.1	3%	-4	2.8	2.1	-0.2

Part of the list above, with two lines to a compound:
Every second line gives: Ecoli growth, UCH37 DUB inh, Vif A3G, Beta2AR agonist, LANA-H2B inh, HNF4A DNA FP, Bfl-1 A1 inh
COc1ccc(-c2ccc(C(C)=O)cc2)cc1[C@H]1[C@H]2C=CC[C@@H](C)[C@@H]2C(=O)N1Cc1ccccc1
  x, -3.1, 4%, 2, 0.7, 20, 0.4
CN(c1ccccc1)S(=O)(=O)c1cc(C(=O)c2nccn2C)ccc1Cl
  0.77, 1.7, 3%, 1, 4.2, 2.1, 0.2
CC(=O)Nc1cccc(NC(=O)c2c(-c3ccccc3)noc2C)c1
  0.67, -1.6, 1%, 13, 18*, 3.8, 0.9
COc1ccc(Cc2nnc(NC(=O)C3CCN(C(=O)c4ccco4)CC3)s2)cc1
  0.67, 3.0, 2%, -4, 4.3, 2.6, -0.7

Next part:
SMILES	Ecoli growth	UCH37 DUB inh	Vif A3G	Beta2AR agonist	LANA-H2B inh	HNF4A DNA FP	Bfl-1 A1 inh
CCOc1ccc(C(C)=O)cc1CSC(=N)N	0.65	1.3	2%	4	-2.1	3.9	-0.7
COc1ccccc1NC(=O)c1ccc(-n2ccnc2)c([N+](=O)[O-])c1	0.64	6.4	-2%	6	-3.9	-1.6	1.0
O=C(Nc1ccccc1-c1ccccc1)c1cc(C(F)(F)F)cc(C(F)(F)F)c1	0.71	-0.7	x	-2	x	2.0	0.8
CN(C)c1ccc(C(C(=O)NCc2ccccc2)N(Cc2cccnc2)C(=O)c2snc(C(N)=O)c2N)cc1 (stereo not given)	0.69	1.2	x	12	x	-1.8	x
COc1ccc(S(=O)(=O)N2CCOCC2)cc1NC(=O)CN1CCCC1	0.7	3.7	x	-2	9.2	1.3	0.0
CCn1cc(C(=O)NCCCN2CCCC(C)C2)c(=O)c2cc(S(=O)(=O)N(C)C3CCCCC3)ccc21 (stereo not given)	0.7	1.3	x	11	-3.5	0.1	0.2
CC1(C)Cc2c(sc(NC(=O)c3ccco3)c2C(=O)O)CO1	0.62	12	26%	5	4.0	-1.5	-4.9
CCC(C)Sc1nc2c(c(=O)[nH]1)C(c1cccs1)C1=C(CCCC1=O)N2 (stereo not given)	0.74	-4.0	6%	-4	-3.2	3.0	1.4
O=C(Nc1ccc2c(c1)CCC2)C1CCN(c2c3c(nc4ncnn24)CCC3)CC1	0.72	0.0	-4%	-10	3.8	-1.0	0.0
O=C(CNC(=O)c1ccccc1)Sc1ccccc1	0.67	3.5	6%	0	x	0.1	x
Cc1cc(C)cc(NC(=O)CSc2nnc(CNC(=O)c3ccco3)n2C)c1	0.68	-1.7	x	-7	0.7	1.6	0.9
CC(C)c1ccc(N(CC(=O)Nc2ccc(S(=O)(=O)N3CCOCC3)cc2)S(C)(=O)=O)cc1	0.71	4.0	-2%	-2	3.3	3.6	0.0
COc1ccc(C(=O)CCC(=O)NCCc2c[nH]c3ccccc23)cc1OC	0.7	-0.5	x	0	1.0	2.0	0.4
C=C(C)CSC1=C(C#N)C(c2ccccc2)CC(=O)N1 (stereo not given)	0.7	-1.7	x	2	6.4	0.0	0.0
CCOC(=O)C1=C(C)C2C3C(=O)N(c4ccc(C)cc4C)C(=O)C3C1(C)C1C(=O)N(c3ccc(C)cc3C)C(=O)C21 (stereo not given)	0.7	2.2	-5%	0	3.3	1.9	0.8
Cc1cccc(N(C)c2ncnc3onc(-c4ccc(F)cc4)c23)c1C	0.69	0.7	x	2	-3.5	4.5	0.1
Nc1c(C(=O)Nc2ccc(S(=O)(=O)N3CCCC3)cc2)sc2nc3cc4c(cc3cc12)CCC4	0.69	7.2	-2%	-32	-466	4.7	-0.9
O=C1c2ccccc2[C@@H]2C[C@@H](O)[C@H](Nc3cccc(C(F)(F)F)c3)CCN12	0.7	0.9	1%	1	x	-0.1	x
Cc1ccccc1NC(=O)C1CC(=O)OC12CCOC(C)(C)C2 (stereo not given)	0.72	0.2	x	5	1.6	4.8	1.3
CCOc1ccc(-n2ccc(=O)c(C(=O)O)n2)cc1	0.7	-8.2	4%	-14	-2.3	-0.8	-0.5
CC(=O)Oc1ccc2oc(=O)c3c(c2c1)CCCN3C(=O)CN1CCOCC1	0.6	2.2	0%	-3	0.2	-0.4	0.6
COCCCNC(=O)c1ccc(-c2nc3ccccc3nc2-c2ccccc2)cc1	0.64	-42	x	-16	-0.1	4.6	0.1
O=C(N/N=C/c1ccc(Cl)cc1)Nc1ccccc1	x	x	-6%	7	-2.8	2.0	0.3
OC(C#CCN1CCCCCC1)(c1ccccc1)c1cccnc1 (stereo not given)	0.69	1.9	x	0	15*	-4.8	0.5
CCOc1ccc(NC(=O)N2CCC(NC(=O)C(Cc3ccccc3OC)NC(C)=O)CC2)cc1 (stereo not given)	0.7	0.3	-2%	8	5.8	-1.6	1.3
CCCCn1c(SCC(=O)N(CC)C2CCS(=O)(=O)C2)nc2cc(S(N)(=O)=O)ccc21 (stereo not given)	0.66	2.3	x	-5	3.8	-1.0	0.4
Cc1ccc(/C=N/NC(=O)c2cc(C)oc2C)cc1	x	x	-7%	2	-7.5	-5.8	-7.5
Cc1cc2c(cc1C)/C(=N/NC(=O)c1ccccn1)CCC2	x	x	31%	12	4.6	-3.2	-0.1
COc1ccc(N2C3=C(CC4=C2CC(C)(C)CC4=O)C(=O)CC(C)(C)C3)cc1	0.72	-345	5%&25%	34	-3.1	-1.9	-0.1
Cc1ccc(S(=O)(=O)O/N=C2\CCCc3ccccc32)cc1	x	x	9%	-6	3.9	4.6	0.0
O=C(OC1CCOC1=O)c1ccc(NS(=O)(=O)c2cccs2)cc1 (stereo not given)	0.67	3.0	x	1	x	-3.2	1.6
CCN1C(=O)/C(=C/c2cnn(CC)c2C)SC1=S	0.69	4.8	0%	-2	-0.1	1.9	-0.6
COc1ccc(C(C)NC(=O)c2ccc([N+](=O)[O-])cc2)cc1OC (stereo not given)	0.63	3.0	4%	0	2.7	-2.2	-0.3
Cc1c(NC(=S)NC(NC(=O)CC(C)C)C(Cl)(Cl)Cl)c(=O)n(-c2ccccc2)n1C (stereo not given)	0.66	2.7	9%	-3	4.5	1.2	-0.1
COCCOC(=O)c1c(C)oc2ccc(OCc3cc(C(=O)OC)oc3C)cc12	0.7	3.0	-1%	3	4.1&-1.6	3.9	0.0
Cc1cc(C)c(S(=O)(=O)c2ccccc2F)c(=O)[nH]1	0.68	0.7	-2%	-11	-0.8	-2.0	0.1
CCOc1cc(N2CCOCC2)c(OCC)cc1NC(=O)CN1C(=O)N(C)C2(CCCCC2)C1=O	0.69	1.0	x	-2	-1.6	-1.1	0.2
O=C(NCc1ccncc1)c1cn(-c2ccccc2)nc1-c1cccnc1	0.68	-0.9	-10%	-10	-1.3	4.6	-0.8
O=C(COC(=O)c1cccc(S(=O)(=O)N2CCCC2)c1)Nc1ccccc1Cl	0.7	2.6	6%	-1	x	-4.1	x
CC[C@@H]1C=C(C(=O)O)[C@H](c2ccc(C#N)cc2)N1S(=O)(=O)c1ccc(C)cc1	0.69	-2.8	x	6	x	-0.2	x
CCCCN(CCCC)C(=S)NC(=O)C(C)(C)C	0.68	3.5	-12%	-3	2.6	0.7	0.7
Clc1ccc(-c2csc(-c3ccncc3)n2)cc1	0.7	0.2	4%	-5	-0.2	-0.6	-0.5
COCCCNc1nc2c(c(=O)[nH]c(=O)n2C)n1CC(O)COc1ccccc1 (stereo not given)	0.7	2.4	-7%	0	-2.2	-2.6	0.1
N#Cc1ccc(C(=O)Nc2nc(-c3cccs3)c(C(=O)C(F)(F)F)s2)cc1	x	x	x	9	-1.6	0.9	-1.6
Cc1nnc(SCCn2c(N3CCCCC3)nc3c2c(=O)n(C)c(=O)n3C)s1	0.7	1.9	x	-25	6.9	0.1	0.0
CC1CC(C)CN(C(=O)COC(=O)c2cc3ccccc3cc2O)C1 (stereo not given)	0.7	-2.2	10%	3	1.5	-0.2	-0.4
CCN(CC)C(=O)Cn1cc(S(=O)(=O)CC(=O)NCc2ccc(F)cc2)c2ccccc21	0.7	2.2	x	-1	-3.1	3.7	-0.3
Cn1ncc(C(=O)N=S(C)(=O)c2ccccc2)c1[N+](=O)[O-] (stereo not given)	0.7	-2.8	26%	13	2.5	4.9	-0.9
